# KCNQ2 block – KCNQ2 channel blockers in CHO-K1 cells – cell-based, FluxOR thallium flux, B-score, primary screen (AID 2156); actives 1.1% (n = 310,000); 20 min; hits give low values; only compounds with negative scores are shown here; some inactives read as strong as hits; O88943; B-score at 10 µM;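 active = fluorescence ratio B-score at most minus 3 library SDs, with starting brightness B-score within 2 library SDs, cut at about -5.5 in these data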
# Target sequence (O88943 whole entry, looked up): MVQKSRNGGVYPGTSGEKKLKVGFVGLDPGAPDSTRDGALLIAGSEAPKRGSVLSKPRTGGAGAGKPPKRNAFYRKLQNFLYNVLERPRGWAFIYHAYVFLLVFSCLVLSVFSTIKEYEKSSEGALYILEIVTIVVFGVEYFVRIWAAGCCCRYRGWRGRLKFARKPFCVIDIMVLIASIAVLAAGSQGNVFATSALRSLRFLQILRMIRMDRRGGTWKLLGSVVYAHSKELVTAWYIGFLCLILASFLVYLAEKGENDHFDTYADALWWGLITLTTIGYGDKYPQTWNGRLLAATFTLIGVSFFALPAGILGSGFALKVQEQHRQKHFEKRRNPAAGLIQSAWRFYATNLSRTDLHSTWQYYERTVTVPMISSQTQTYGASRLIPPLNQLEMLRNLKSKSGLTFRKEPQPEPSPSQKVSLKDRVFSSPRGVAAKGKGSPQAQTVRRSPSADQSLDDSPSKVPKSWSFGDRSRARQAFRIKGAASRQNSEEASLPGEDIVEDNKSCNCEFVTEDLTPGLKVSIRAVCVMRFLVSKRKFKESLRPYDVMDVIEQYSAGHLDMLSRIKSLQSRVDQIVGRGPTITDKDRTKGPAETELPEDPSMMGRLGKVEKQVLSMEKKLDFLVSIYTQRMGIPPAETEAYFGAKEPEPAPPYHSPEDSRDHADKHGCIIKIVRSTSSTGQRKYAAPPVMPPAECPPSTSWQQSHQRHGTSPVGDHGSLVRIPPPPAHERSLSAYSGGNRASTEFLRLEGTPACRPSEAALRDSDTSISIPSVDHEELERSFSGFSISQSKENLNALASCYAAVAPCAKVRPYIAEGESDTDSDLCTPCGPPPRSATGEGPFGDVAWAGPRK
# KCNQ2 block baseline – further read-out of KCNQ2 block, marked with its call; B-score; measured here: initial fluorescence intensity artifact check;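 brightness before thallium and not channel activity; 0 = typical well and far values either way flag optical interference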
# The depositor's hits bear a star; i = inactive. Only part of the results is shown; count on the stated rates, not on these rows.
SMILES | KCNQ2 block | KCNQ2 block baseline
CCCC[N+]12CCC(CC1)C(Cc1ccccc1)C2 (stereo not drawn) | i | -0.62
Cc1ccc(CN2CCCC(C(=O)c3ccc4c(c3)OCO4)C2)cc1C (stereo not drawn) | i | -2.8
CCOC(=O)c1c(NS(=O)(=O)c2ccccc2)n(CCCOC)c2nc3ccccc3nc12 | i | 2.3
Cc1cc(Cl)ccc1OCC(=O)N1CCN(C)CC1 | i | 1.3
O=C(NC1(C(F)(F)F)Oc2ccccc2O1)N1CCC2(CC1)OCCO2 | i | -0.22
O=C1NC(=S)N(c2ccccc2F)C(=O)/C1=C\c1cccs1 | i | -0.03
CCCCn1c(=O)c(C(=O)Nc2ccccc2)c(O)c2ccccc21 | i | -0.93
CCCCn1c(O)c(C(CC)=Nc2ccc(OC)cc2OC)c(=O)[nH]c1=O | i | -0.34
O=C1NC(=O)C(CCc2ccncc2)(CCc2ccncc2)C(=O)N1Cc1ccc(F)cc1 | i | -1.4
Cc1ccc(S(=O)(=O)N2CC3CC(C2)c2cccc(=O)n2C3)cc1 (stereo not drawn) | i | 0.82
CCCOP(=O)(OCCC)C(NC(=O)c1cc(OC)c(OC)c(OC)c1)c1ccccc1 (stereo not drawn) | i | 3
COCCNC(=O)Cn1cc(/C=C2\C(=O)NC(=O)N(c3cccc(C)c3C)C2=O)c2ccccc21 | i | 0.41
CC[C@H](C)/C=C(C)/C=C/C1=CC2=C(Cl)C(=O)[C@@](C)(OC(C)=O)C(=O)C2=CO1 | i | -2.3
CCOc1cc(C)cc2oc(=O)c3c(c12)CCCC3 | i | 1.8
O=C1NC(=O)C(=C/C=C/c2coc3ccc(Br)cc3c2=O)C(=O)N1 | i | 17
CCCc1nc2ccccc2c(=O)n1-c1cccc(OC)c1 | i | 0.2
CNCCc1c[nH]c2ccc(O)cc12 | i | 0.54
Cc1nn(C)cc1/C=C1/CC2C3CC=C4CC(O)CCC4(C)C3CCC2(C)C1=O (stereo not drawn) | i | 0.06
[O-]c1ccccc1-[n+]1c(-c2ccccc2)cc(-c2ccccc2)cc1-c1ccccc1 | i | -1.4
CC(C)(O)[C@@H]1[C@H]2OC(=O)[C@@H]1[C@]1(O)C[C@H]3O[C@]34C(=O)O[C@H]2[C@]14C (tested in a mixture with another compound) | i | -0.08
CCOP(=O)(OCC)C(NS(=O)(=O)c1ccccc1)C(Cl)(Cl)Cl (stereo not drawn) | i | 1.6
N#Cc1ccc(Cn2cc(C(=O)c3ccco3)c3ccccc32)cc1 | i | 1.9
COC(=O)c1ccc(CN2CCSC2=N)cc1 | i | 0.02
O=C1NC(=O)N(CCc2ccc(F)cc2)C(=O)/C1=C/c1ccco1 | i | -1.1
CCOc1ccc(NC(=O)c2ccc(NC(=O)COC(=O)Cc3ccccc3)cc2)cc1 | i | 0.03
O=C(C(Cc1ccccc1)NS(=O)(=O)c1ccc(F)cc1)N1CCC2(CC1)OCCO2 (stereo not drawn) | i | -2.1
CC(=NCc1cccnc1)c1c(O)n(-c2ccccc2)c(=O)[nH]c1=O | i | -0.56
Nc1c(C(=O)NCc2ccco2)c2nc3ccccc3nc2n1Cc1ccccc1 | i | 0.98
Nc1ccncc1Cl | i | -0.78
O=c1c2ccccc2nc(CSc2ncnc3nc[nH]c23)n1-c1ccc(Cl)c(Cl)c1 | i | -1.7
N[C@@H](Cc1c[nH]c2ccccc12)c1nnc(SCc2ccc(Cl)cc2)o1 | i | 0.57
CCCCNC(=O)c1c(N)n(Cc2ccc3c(c2)OCO3)c2nc3ccccc3nc12 | i | -0.15
CC(C)(C)OC(=O)c1c(N)n(Cc2ccco2)c2nc3ccccc3nc12 | i | -0.13
CN(C=O)CP(=O)(O)CN(C)C=O | i | -0.28
CCOP(=S)(OCC)SCC(=O)NC(C(=O)O)C(C)C (stereo not drawn) | i | 0.93
O=c1[nH]c(O)c(C=Nc2ccc(F)c(Cl)c2)c(=O)[nH]1 | i | 1
Cc1cc(C)[n+](C2C3CC4CC(C3)CC2C4)o1 (stereo not drawn) | i | -0.07
Cc1nc(Cl)sc1C(=O)Nc1ccc2ccccc2c1 | i | 0.58
Clc1cccc(N2CCNCC2)c1Cl | i | -0.51
C=CCn1c(O)c(C=Nc2ccc(N(CC)CC)cc2)c(=O)[nH]c1=O | i | 0.36
Cc1cc2ccccn2c1C(C[N+](=O)[O-])c1c(F)cccc1Cl (stereo not drawn) | i | 0.02
CCCCn1c(O)c(C(CC)=NCc2ccc3c(c2)OCO3)c(=O)[nH]c1=O | i | 0.52
O=C(Nc1nccs1)C(Cl)(Cl)Cl | i | 1.8
CCOC(=O)c1c(-n2c(C)cc(C=C3C(=O)NC(=S)NC3=O)c2C)sc2c1CCCC2 | i | 0.4
COC(=O)c1cccc(N=Cc2c(O)n(Cc3ccc(F)cc3)c(=O)[nH]c2=O)c1 | i | -0.01
COC(=O)C1=C(c2cc3ccccc3s2)C[C@@H]2CC[C@H]1N2C(=O)NCc1ccc(F)cc1 | i | -0.67
CN1CCC2(O)OCCCC2C1 (stereo not drawn) | i | -0.57
C=CCN1C(=O)NC(=O)/C(=C/c2ccoc2)C1=O | i | -0.94

# Single records, from the list above.
# O=c1[nH]c(O)c(C=Nc2ccc(F)c(Cl)c2)c(=O)[nH]1 is listed as KCNQ2 block = i; KCNQ2 block baseline = 1
# CN1CCC2(O)OCCCC2C1 (stereo not drawn) is listed as KCNQ2 block = i; KCNQ2 block baseline = -0.57

# Next part
SMILES | KCNQ2 block | KCNQ2 block baseline
Cc1ccc(-n2c(O)c(/C=N/c3ncc(Br)cc3Br)c(=O)[nH]c2=O)cc1 | i | 2.4
CN[C@@H](C)[C@@H](O)c1ccccc1 | i | 2.5
Clc1ccc2c(N3CCNCC3)ccnc2c1 | i | -1.1
C=C(C=O)C[C@@H]1C[C@H](O)C2OC3C[C@]4(C)OC5/C=C\CC6OC7C(CC=CCC6OC5CCCC4OC3CC2O1)OC1CC2OC3CC(=O)OC3C[C@@H](C)C[C@@]2(C)OC1C[C@@H]7C (stereo partly drawn) | i | -0.25
O=C1NC(=S)N(C2CC2)C(=O)/C1=C/c1ccc2c(c1)CCN2CCCCl | i | 1.5
CC(Cc1ccccc1)[n+]1cc(/N=C(\[O-])N(C)C)on1 (stereo not drawn) | i | 0.57
Cc1cc(C=C2C(=O)N(C)C(=S)N(C)C2=O)c(C)n1C1CCCCC1 | i | 2.3
CN1C(=O)C(=Cc2ccc(Sc3ccccc3)o2)C(=O)N(C)C1=O | i | -1.4
NNCc1cccc(O)c1 | i | 2.6
Cc1oc(-c2ccc(F)cc2F)nc1CN1C[C@@H]2C[C@@H](C1)c1cccc(=O)n1C2 | i | -0.06
CCCCn1c(=O)c(C(=O)Nc2ccccn2)c(O)c2ccccc21 | i | -1.1
CCCCCCn1c(=O)c(C(=O)Nc2c(C)n(C)n(-c3ccccc3)c2=O)c(O)c2ccccc21 | i | 0.03
COC(=O)C[C@]1(C(=O)OC)CN(C#N)N(c2ccc(Cl)cc2)C12c1ccccc1-c1ccccc12 | i | -2
Cc1nc2ccccc2c(=O)n1-n1cnnc1 | i | -0.56
COc1ccc(O)c2c(=O)c3c(OC)cc4c(c3oc12)C1C=COC1O4 (stereo not drawn) | i | 0.56
Cc1cccc(-n2c(/C=C/c3ccccn3)nc3ccccc3c2=O)c1 | i | -0.07
CCCCOP(=O)(OCCCC)/C(C#N)=C(/C)O | i | 0.8
CC(=O)NC1CC2CCCC(C1)N2 (stereo not drawn) | i | 0.12
CN1CC(C(=O)c2ccc([N+](=O)[O-])cc2)C(c2ccc(Cl)cc2)C1 (stereo not drawn) | i | -0.75
O=C(O)CSC(=S)N1CC2CC(C1)c1cccc(=O)n1C2 (stereo not drawn) | i | 0.22
CC1(C)CN2C(c3ccc(Cl)cc3)N2C1 (stereo not drawn) | i | -0.5
COc1cccc(C2CCN(CC(=O)Nc3cc(Cl)ccc3OC)CC2O)c1 (stereo not drawn) | i | -0.21
COc1cc2nc(CN3CC=C(c4ccccc4)CC3)[nH]c(=O)c2cc1OC | i | -0.03
CCc1nc2ccccc2c(=O)n1-c1cccc(OC)c1 | i | 0.36
CC(=O)NN1C(=O)c2ccccc2NC1c1cccnc1 (stereo not drawn) | i | -0.07
COP(=O)(OC)C(Nc1ccccc1)c1ccccc1 (stereo not drawn) | i | 0.95
Cc1ccc(-c2nc3ccccc3c(=O)n2-c2ccc(O)cc2)cc1 | i | -2.5
COc1cccc(NP(=O)(Oc2ccccc2Cl)Oc2ccccc2Cl)c1 | i | -1.1
NCC(O)c1ccc(O)cc1 (stereo not drawn) | i | -1.1
CCOC(=O)CSc1ccc(C(=O)N2CCC3(CC2)OCCO3)cc1[N+](=O)[O-] | i | -0.38
CCn1c(=O)n(CC)c2cc([N+](=O)[O-])c(N3CCNCC3)cc21 | i | -0.13
COCc1cc(OC(=O)N(C)C)nc(-c2ccccc2)n1 | i | -0.54

# Retrieved one by one from the entries so far, 6 records:
SMILES | KCNQ2 block | KCNQ2 block baseline
CC(=O)NN1C(=O)c2ccccc2NC1c1cccnc1 (stereo not drawn) | i | -0.07
CCOC(=O)CSc1ccc(C(=O)N2CCC3(CC2)OCCO3)cc1[N+](=O)[O-] | i | -0.38
COCc1cc(OC(=O)N(C)C)nc(-c2ccccc2)n1 | i | -0.54
COc1cccc(NP(=O)(Oc2ccccc2Cl)Oc2ccccc2Cl)c1 | i | -1.1
COP(=O)(OC)C(Nc1ccccc1)c1ccccc1 (stereo not drawn) | i | 0.95
Cc1ccc(-c2nc3ccccc3c(=O)n2-c2ccc(O)cc2)cc1 | i | -2.5

# The listing continues:
SMILES | KCNQ2 block | KCNQ2 block baseline
C[C@]12CCC(=O)C=C1CC[C@@H]1[C@@H]2C(=O)C[C@]2(C)C(=O)CC[C@@H]12 | i | -2.5
CCCNS(=O)(=O)c1ccc(OCC(=O)N2CCN(Cc3ccccc3)CC2)cc1 | i | -0.21
CNC(=O)c1cccn(Cc2cccc(C(F)(F)F)c2)c1=O | i | 1.5
CCC(=NCCC(c1ccccc1)c1ccccc1)c1c(O)n(C)c(=O)n(C)c1=O | i | 0.02
O=C(c1ccco1)c1cn(Cc2ccccc2Cl)c2ccccc12 | i | -0.25
CC(=Nc1c(C)n(C)n(-c2ccccc2)c1=O)c1c(O)n(Cc2ccccc2)c(=O)[nH]c1=O | i | -0.43
Cc1ccc2cc(C=C(C#N)C#N)c(Cl)nc2c1 | i | 0.08
Nc1cc(N2CCNCC2)c([N+](=O)[O-])cc1Cl | i | 3.5
Cc1ccc(Oc2cc(NN3CCCCC3)c([N+](=O)[O-])cc2[N+](=O)[O-])c([N+](=O)[O-])c1 | i | 0.02
O=C(O)CP(=O)(O)c1ccc(Cl)cc1 | i | 1.6
C=CCOC(=O)C1=C(C)OC(N)=C(C#N)C12C(=O)N(CN1CCOCC1)c1ccccc12 (stereo not drawn) | i | 0.47
Cc1ccc(N2Cc3ccccc3C2=N)cc1[N+](=O)[O-] | i | -0.94
O=c1[nH]c(O)c(/C=C2\C=Nc3ccc(OCc4ccccc4)cc32)c(=O)[nH]1 | i | 1.4
c1ccc2c(c1)CC1CNCc3cccc(c31)S2 (stereo not drawn) | i | 1.5
CNC(=S)N(C)CCc1cc2c(c(OC)c1/C=C1/C(=O)NC(=O)N(C)C1=O)OCO2 | i | 0.02
Cc1cc(/C=C2/C(=O)NC(=O)N(Cc3ccco3)C2=O)c(C)n1-c1ccc(C(=O)O)cc1 | i | 0.01
CCCCn1c(=O)c(C(=O)Nc2cnccn2)c(O)c2ccccc21 | i | 0.14
O=C(N[C@H]1CP(=O)(Oc2ccccc2)O[C@H](COCc2ccccc2)[C@H]1O)C(Cl)(Cl)Cl (stereo partly drawn) | i | 1.1
Cc1c(C(=O)c2cccc3ccccc23)c2cccc3c2n1[C@H](CN1CCOCC1)CO3 | i | -0.21
O=P(Oc1ccccc1)(Oc1ccccc1)C(Nc1ccccc1)c1ccccc1 (stereo not drawn) | i | -1.3
OC1(c2ccc(F)cc2)CC2CCC(C1)N2Cc1nnnn1C1CCCC1 (stereo not drawn) | i | 0.31
CCCC(C)C1(CC)C(=O)NC(=Nc2ccccc2)NC1=O (stereo not drawn) | i | 0.2
Cc1cc(O)c(CN2CC=C(c3ccccc3)CC2)cc1C(C)C | i | 0.93
O=C1CCCC2=C1C(c1cccnc1)Nc1ccccc1N2 (stereo not drawn) | i | 1.9
Cc1ccccc1OCCN=Cc1c(O)n(C)c(=O)n(C)c1=O | i | 2.3
Nc1ccccc1C(=O)OCC(=O)N1CCc2ccccc21 | i | -0.84
COc1ccc(C(O)c2cc(OC)ccc2OP(=O)(N(C)C)N(C)C)cc1 (stereo not drawn) | i | 1.7
CCOC(=O)c1c(C)n(Cc2ccco2)c2ccc(OC)cc12 | i | 1.4
CN(C)CCc1nc2ccccc2c(=O)n1-c1ccccc1 | i | 0.08
CN1C(=O)NC(=O)/C(=C\C=C\c2ccccc2[N+](=O)[O-])C1=O | i | 0.69
CN1CCN(c2nc3ccccc3c(=O)n2-c2ccccc2)CC1 | i | 0.73
COc1ccc(C(C)=O)cc1CC(C(=O)c1ccccc1)N(C)C (stereo not drawn) | i | -0.15
Cc1nn(-c2ccccc2)c2c1CC1(C(=O)N(C)C(=O)N(C)C1=O)C1CCCCN21 (stereo not drawn) | i | -0.72
CC1=CC(C)C(COC(N)=O)(COC(N)=O)C(C)C1 (stereo not drawn) | i | -2
Cc1ccccc1CN1CCN(Cc2ccccc2)CC1 | i | -1.4
COc1cccc(C(=O)C2CCCN(C3CCOCC3)C2)c1 (stereo not drawn) | i | -0.96
Cc1nc2sccc2c(=O)n1-c1ccccc1Cl | i | 3.3
COc1ccccc1NC(=O)N1C[C@@H]2C[C@@H](C1)c1cccc(=O)n1C2 | i | 1.7
